# Screening data (PubChem)
# Vaccinia Venus – inhibitors of vaccinia virus (Venus reporter); Vaccinia virus Venus reporter expression, fluorescence; Potency, µM (doses to about 36.5 µM), for inactives: at the highest dose activity change, negative = inhibition, hits mostly inhibitors; 330,000 tested, 0.46% active; active means well fitted inhibition curve with a large enough effect; inconclusive means small, poorly fitted or top-dose-only effect; inactive means no such curve, though single readings can be large or run the other way; tested in A549 cells; note: nearly all actives have a fitted effect of over 30% in size; inactives centre near -10
# VACV mCherry inh – inhibitors of vaccinia virus infection (mCherry reporter signal); Potency, µM (titrated, usually from 36.5 µM), for inactives: top-dose activity change, negative = inhibition, most hits filed as inhibitors; 310,000 tested, 0.63% active; Vaccinia virus mCherry reporter infection, fluorescence; about a quarter of the inactives have no number; active = well fitted inhibition curve with a large enough effect; inconclusive = small, poorly fitted or top-dose-only effect; inactive = no such curve, though single readings can be large or run the other way; tested in A549 cells; note: nearly all actives have a fitted effect of over 35% in size; inactives centre near -10
# Numbers without * were called inactive; i = inactive; ? = inconclusive; · = not tested or not shown; & = joins results of further samples; [ ] = dose if it differs, or a comment. % is set by controls: 0 for no effect and ±100 for the full control effect; potency is the fitted concentration of half-maximal effect. Compounds were not picked by outcome; any-hit rate near 0.87%.
# The line under a structure holds: Vaccinia Venus, VACV mCherry inh
COc1ccccc1/C=C/C=c1\sc2nc(=O)c(Cc3ccccc3)nn2c1=O
  -3%, -16%
CC(=O)OCC(=O)NCc1ccc2c(c1)OCO2
  1%, ·
C/C(=N\NC(=O)c1cccc(S(=O)(=O)N2CCCC2)c1)c1ccc(C)cc1
  -16%, -23%
COCCNC(=O)C(=O)NNS(=O)(=O)c1ccc(Cl)cc1
  -6%, -6%
C/C(=N\NC(=O)c1ccccc1)c1ccc(NC(=O)c2cccs2)cc1
  -6%, -4%
CN(C(=O)c1ccc(NC(=O)Cc2ccc(NC(=O)C3CCCN(C(=O)c4ccccc4)C3)cc2)cc1)C1CC1 (stereo not given)
  -12%, i
CC(C)C(=O)N(c1ccc2oc(=O)sc2c1)S(=O)(=O)c1cccs1
  0%, ·
c1ccc(N=c2nc(-c3ccccc3)n(-c3ccccc3)s2)cc1
  ?, ?
O=C(O)c1ccc(CNCc2ccccc2Cl)s1
  2%, -5%
CCOC(=O)N1CCN(c2nnnn2-c2ccccc2)CC1
  -5%, ·
O=C(Nc1nc2ccc3ccccc3c2s1)c1ccc(N2CCCCC2)c([N+](=O)[O-])c1
  -17%, -7%
Fc1cccc(Cl)c1CSc1nnc(COc2cccc3cccnc23)o1
  -13%, -3%
CC1CN(C(=O)[C@@H]2CCCN2S(=O)(=O)c2ccc(Cl)cc2)CC(C)O1 (stereo not given in full)
  1%, i
CNC(=S)NC(CC(=O)OC)c1ccc2c(c1)OCO2 (stereo not given)
  2%, -24%
Oc1c(C=NCc2ccncc2)sc2ccccc12
  -7%, 0%
CCN=C(NC#N)SCc1c(F)cccc1Cl
  12%, 2%
COc1cc(OC)cc(-c2sc3ccc(OC)cc3c2C#CCCO)c1
  ?, -18%
COc1ccc(C(=O)NCCc2ccccc2F)cc1OC1CCN(C(C)=O)CC1
  -14%, -12%
COc1cc(/C=N/NC(=O)c2cccc([N+](=O)[O-])c2)cc(OC)c1O
  -2%, -9%
CCn1c(=N)n(CC(=O)c2ccc(OC)cc2)c2ccccc21
  ?, ·
COc1ccc(C(=O)COC(=O)C(C)N2C(=O)C3C4CCC(C4)C3C2=O)cc1 (stereo not given)
  -11%, i
Cc1ccc(NC(=O)CN(C)C(=O)C(C)OC(=O)CNC(=O)c2ccc(Cl)c([N+](=O)[O-])c2)cc1 (stereo not given)
  -5%, i
CC(=O)OCCCNc1cc(SCc2ccco2)c2nonc2c1[N+](=O)[O-]
  ?, 11µM*
COc1cc2c(cc1OC)CN(Cc1cc(=O)oc3cc(C)c(Cl)cc13)CC2
  1%, -15%
CCCS(=O)(=O)NC(=O)C1(C)CCCN(C(=O)CSc2ccccc2)C1 (stereo not given)
  0%, 7%
COc1ccc(NC(=O)NC(C)c2ccc3c(c2)OCO3)cc1OC (stereo not given)
  -11%, -8%
O=C(O)CN(c1cccc(C(F)(F)F)c1)S(=O)(=O)c1ccccc1
  4%, -3%
Cc1ccc2cccc(NC(=O)COc3ccccc3[N+](=O)[O-])c2n1
  -3%, -3%
CCOc1ccc(-c2nc(SC(C(C)=O)C(=O)N(C)C)c3c(=O)n(C)c(=O)n(C)c3n2)cc1 (stereo not given)
  -9%, 4%
CCOc1ccccc1C(=O)NCCCn1ccnc1
  ?, -17%
Cc1ccc(C(=O)NC(Cc2c[nH]c3ccccc23)C(=O)O)o1 (stereo not given)
  6%, ·
CCOC(=O)c1ccc(N2C(=O)CC(Sc3nnc(C)s3)C2=O)cc1 (stereo not given)
  -10%, ·
Cc1cccn2cc(CCNC(=O)Cc3cccs3)nc12
  -12%, -29%
Brc1cnc2nc(SC/C=C/c3ccccc3)[nH]c2c1
  -25%[7.34 µM], -4%[7.34 µM]
O=C(Nc1ccc(C(=O)OCc2cc(=O)n3nc(C4CC4)sc3n2)cc1)c1cccc(Cl)c1
  -12%, -19%
COc1ccc(C2=C(C)C(=O)N(Cc3ccc(C(=O)Nc4ccc(F)cc4C)cc3)S2(=O)=O)cc1
  -16%, -12%
Cc1cccn2c(=O)nc(SCC(=O)Nc3ccc4c(c3)OCCO4)nc12
  -28%, -28%
CCCN(CC(=O)Nc1ccccc1C)C(=O)c1ccc(C2SCCS2)cc1
  -28%, -4%
CC(C)n1c(=O)c2ccccc2n1Cc1cn(Cc2cccnc2)nn1
  -9%, 5%
Cc1ccc(CNc2cnn(C34CC5CC(CC(C5)C3)C4)c(=O)c2Cl)cc1
  -15%, -24%
CCC(=O)N1CCc2cc(Br)cc(S(=O)(=O)N3CCCC(C(=O)NCc4ccc(OC)cc4)C3)c21 (stereo not given)
  -10%, -18%
CC(=O)C1=C(C)NC(SCC(=O)c2ccc(Cl)c(Cl)c2)=C(C#N)C1c1ccco1 (stereo not given)
  -13%, -20%
Cc1ccc(C(=O)N/C(=C\c2cccs2)C(=O)NCCCn2ccnc2)cc1C
  1%, ·
Cc1c(C)[n+](=O)c2c(n1[O-])CCC2
  1%, -7%
COc1ccccc1NC(=S)N(CCc1nc2cc(C)c(C)cc2[nH]1)Cc1cccnc1
  -22%, -6%
c1ccc(N2CCN(c3ccccc3)CC2)cc1
  -9%, -13%
CC(=O)Nc1nc2c(F)cccc2s1
  -15%, i
O=C(CN1C(=O)c2ccccc2S1(=O)=O)c1ccc(O)c(O)c1
  8%, ?
COc1ccc(-c2csc(NC(=O)c3cc(-c4cccs4)nc4ccccc34)n2)c(OC)c1
  -5%, -10%
C=CCn1c(O)c(C(CC)=Nc2ccc3c(c2)CCC3)c(=O)[nH]c1=O
  -18%, -17%
CCOc1cc(C(=O)N/N=C\c2cn(CC)nc2C)cc(OCC)c1OCC
  -21%, -26%
CCC(C)c1ccccc1N1CC(C(=O)N(C)CC(=O)Nc2cccc(F)c2)CC1=O (stereo not given)
  -5%, -7%
CCOC(=O)N1CCN(C(=O)C[C@@H]2C[C@@]3(C(=O)OCC)CCCC=C3N(Cc3ccco3)C2=O)CC1
  -11%, 3%
CCOc1ccc(S(=O)(=O)N2CCCC(C(=O)Nc3cc(C)cc(C)c3)C2)cc1 (stereo not given)
  -17%, -9%
COc1ccc(NC(=O)CN(C)C(=O)C23CC4CC(CC(C4)C2)C3)cc1
  -21%, -9%
Cn1cnnc1SCCOc1ccc(Cl)cc1
  -11%, -19%
NNC(=O)c1ccc(-c2cccc([N+](=O)[O-])c2)o1
  -18%, -25%
COCC(C)n1c(-c2ccc3c(c2)NC(=O)CO3)csc1=Nc1ccc(OC(F)F)cc1 (stereo not given)
  ?, ?
CC1=NOC(=O)/C1=C\c1ccc2c(c1)OCO2
  -10%, -5%
Cc1ccccc1C(=O)OCc1cc(=O)n2nc(C3CC3)sc2n1
  -16%, -17%

# Carrying on.
# The line under a structure holds: Vaccinia Venus, VACV mCherry inh
NC(=NC(=O)c1ccccc1)N1N=CCC1c1ccccc1 (stereo not given)
  -12%, -21%
Cc1noc(C)c1C(=O)Nc1ccc2ccccc2c1
  -12%, -14%
Cc1ccc2c(c1)NC(=O)CC(c1ccccc1)=N2
  -8%, -12%
COc1ccc(Cn2c(C)nnc2-c2cnn(C)c2N)cc1OC
  -9%, -8%
Cc1ccc(C(=O)OCC(=O)NC2CCCCC2)o1
  1%, -6%
N#CC(C#N)=Cc1cccnc1
  -7%, -16%
COc1ccccc1N1CCN(C/C(O)=C(\C#N)c2nc(-c3ccccc3)cs2)CC1
  -6%, i
Cc1cccc(C)c1NC(=O)CNC(=O)c1cn(-c2ccccc2)nc1-c1ccccc1
  -29%, ?
O=[N+]([O-])c1ccc(Nc2ccccc2)c2nonc12
  -25%, -29%
O=C(N/N=C/c1cc2c(cc1Cl)OCO2)c1ccccn1
  -5%, i
COC(=O)c1ccc(/C=N/N2CCN(Cc3ccccc3)CC2)cc1
  0%, ·
CNC(=O)Nc1cc(NC(=O)NC)cc(C(F)(F)F)c1
  -10%, -13%
COc1ccccc1/C=C(/C(=O)OCC(=O)N(C)Cc1ccccc1)c1ccccc1
  -15%, -23%
COc1ccc(NC(=O)[C@@H]2CC=C[C@@H]3CCN(C4CCCCC4)C(=O)[C@@H]32)cc1
  -4%&-14%, -17%
O=C(NCc1ccc(OC(F)(F)F)cc1)C1CC(c2c(Cl)cccc2Cl)=NO1 (stereo not given)
  -3%, -23%
NC(=O)Cn1c(=O)n(C2CCCCC2)c(=O)c2c3c(sc21)CCCCC3
  -15%, i
COC(=O)c1ccccc1NC(=O)CCS(=O)(=O)c1cc2c(cc1C)NC(=O)CO2
  -8%, 21%
O=C(O)c1ccccc1-c1ccccc1C(=O)Nc1ccc(F)cc1
  -4%, -10%
O=C(/C=C/Nc1cccc(C(F)(F)F)c1)c1ccco1
  -17%, i
COc1ccccc1CNS(=O)(=O)c1cc(C(=O)Nc2cccc(C(F)(F)F)c2)ccc1F
  ?, -16%
COc1ccc(CNC(=O)CCc2c(C)c3cc4c(C)c(C)oc4cc3oc2=O)cc1OC
  -18%, -17%
Cc1c(-n2c(SCC(=O)O)nnc2-c2ccccc2Cl)c(=O)n(-c2ccccc2)n1C
  2%, -7%
Cc1cc(OCc2ccc(C(=O)Nc3ccc(C(=O)O)cc3)o2)ccc1Cl
  -11%, ?
Cc1cc(S(=O)(=O)NC(C)c2nnc3ccccn23)ccc1Br (stereo not given)
  -12%, -11%
CS(=O)(=O)c1ccc(C2=C(CNC(=O)c3cccs3)[C@H]3CC[C@@H](C2)N3CCOc2ccccc2)cc1
  -11%, -13%
COc1cccc(Cn2c(=O)n(-c3ccc(Br)cc3F)c(=O)c3sc4ccccc4c32)c1
  0%, 1%
COc1ccc(C2N(c3cc(C)on3)C(=O)C3CCCN32)cc1 (stereo not given)
  -19%, i
CC(C)[C@H](NC(=O)OC(C)(C)C)c1cc(C(=O)N[C@@H](C)c2ccccc2)c(N)s1
  -18%, ?
CCNC(=O)NC(=O)CSc1nc2ccccc2n1CCOC
  -9%, i
Cn1cnnc1SCc1ccc(C(=O)N/N=C(/CCC(=O)O)c2ccc(C(C)(C)C)cc2)cc1
  -7%, i
O=C(Nn1cnc2ccccc2c1=O)c1cccc(Cl)c1
  -11%, -13%
Cc1ccc(NC(=O)CCN2C(=O)c3ccccc3S2(=O)=O)cc1C
  -15%, -1%
CCN(CC)S(=O)(=O)c1ccc2c(c1)N(CC(=O)N1CCN(c3ccccc3F)CC1)C(=O)CO2
  0%, -12%
COc1cc(C(=O)c2nccc3cc(OC)c(OC)cc23)c([N+](=O)[O-])cc1OC
  -7%, i
Cc1ccc(C)c(-n2c3nc(=O)[nH]c(=O)c-3cc3cc([N+](=O)[O-])ccc32)c1
  -8%, -21%
O=C(CN1CCN(C/C=C/c2ccccc2)CC1)Nc1cc([N+](=O)[O-])ccc1Cl
  -24%, i
CSc1nc(-c2ccccc2)nn1C(=O)c1ccco1
  -6%, -10%
CC(CCN1C(Nc2ccccc2)=NC[C@@H]1Cc1ccccc1)c1ccccc1 (stereo not given in full)
  -13%, ?
COc1ccc(NC(=O)c2cccc(S(=O)(=O)N3CCCC3)c2)cc1OC
  -14%, -19%
COc1ccc(Cl)cc1NC(=O)CN1C(=O)NC(Cc2c[nH]c3ccccc23)C1=O (stereo not given)
  -25%, -14%

# Some of the entries so far, as comma-separated lines.
Compound,Vaccinia Venus,VACV mCherry inh
CCCN(CC(=O)Nc1ccccc1C)C(=O)c1ccc(C2SCCS2)cc1,-28%,-4%
O=C(O)c1ccc(CNCc2ccccc2Cl)s1,2%,-5%
C/C(=N\NC(=O)c1ccccc1)c1ccc(NC(=O)c2cccs2)cc1,-6%,-4%

# Returning to the listing, starting six compounds before the break.
# The line under a structure holds: Vaccinia Venus, VACV mCherry inh
Cc1ccc(C)c(-n2c3nc(=O)[nH]c(=O)c-3cc3cc([N+](=O)[O-])ccc32)c1
  -8%, -21%
O=C(CN1CCN(C/C=C/c2ccccc2)CC1)Nc1cc([N+](=O)[O-])ccc1Cl
  -24%, i
CSc1nc(-c2ccccc2)nn1C(=O)c1ccco1
  -6%, -10%
CC(CCN1C(Nc2ccccc2)=NC[C@@H]1Cc1ccccc1)c1ccccc1 (stereo not given in full)
  -13%, ?
COc1ccc(NC(=O)c2cccc(S(=O)(=O)N3CCCC3)c2)cc1OC
  -14%, -19%
COc1ccc(Cl)cc1NC(=O)CN1C(=O)NC(Cc2c[nH]c3ccccc23)C1=O (stereo not given)
  -25%, -14%
COc1ccc(NC(=O)CN2CCN(c3ccccc3Cl)CC2)cc1
  -9%, -16%
Cc1ccc2c(c1)N(C(=O)N1CCC(C(=O)NCCc3ccc(Cl)cc3)CC1)CC(C)O2 (stereo not given)
  -3%, -12%
Cc1ccc(C(=O)NCCN2CCOCC2)cc1C
  -17%, i
CCN(Cc1ccncc1)C(=O)c1cc(COc2ccc(F)cc2Cl)on1
  -21%, -14%
Cc1ccc([N+](=O)[O-])c(OCCn2cnc3ccccc32)c1
  -24%, -30%
O=C(C1COc2ccccc2O1)N(Cc1cccnc1)c1nc2c(F)cccc2s1 (stereo not given)
  -12%, -10%
Cc1ccc(-c2nnn(CC(=O)N(c3cccc(F)c3)C(C(=O)NC3CCCC3)c3ccncc3)n2)o1 (stereo not given)
  11%, i
